Screens (PubChem BioAssay)
TRPV1 potentiator: human TRPV1 potentiation; TRPV1-expressing cells, Fluo-8 calcium influx, capsaicin EC20 potentiation; host cell line not named in the record; control for the full effect not named in the record; AID 540277; hit rate 0.02% among 320,000; potentiation, % at 8.33 µM; active means potentiation above 80%; inconclusive means 30% to 80%; inactive means below 30%; also: 0% is about no effect
Target sequence (Q8NER1 whole entry, looked up): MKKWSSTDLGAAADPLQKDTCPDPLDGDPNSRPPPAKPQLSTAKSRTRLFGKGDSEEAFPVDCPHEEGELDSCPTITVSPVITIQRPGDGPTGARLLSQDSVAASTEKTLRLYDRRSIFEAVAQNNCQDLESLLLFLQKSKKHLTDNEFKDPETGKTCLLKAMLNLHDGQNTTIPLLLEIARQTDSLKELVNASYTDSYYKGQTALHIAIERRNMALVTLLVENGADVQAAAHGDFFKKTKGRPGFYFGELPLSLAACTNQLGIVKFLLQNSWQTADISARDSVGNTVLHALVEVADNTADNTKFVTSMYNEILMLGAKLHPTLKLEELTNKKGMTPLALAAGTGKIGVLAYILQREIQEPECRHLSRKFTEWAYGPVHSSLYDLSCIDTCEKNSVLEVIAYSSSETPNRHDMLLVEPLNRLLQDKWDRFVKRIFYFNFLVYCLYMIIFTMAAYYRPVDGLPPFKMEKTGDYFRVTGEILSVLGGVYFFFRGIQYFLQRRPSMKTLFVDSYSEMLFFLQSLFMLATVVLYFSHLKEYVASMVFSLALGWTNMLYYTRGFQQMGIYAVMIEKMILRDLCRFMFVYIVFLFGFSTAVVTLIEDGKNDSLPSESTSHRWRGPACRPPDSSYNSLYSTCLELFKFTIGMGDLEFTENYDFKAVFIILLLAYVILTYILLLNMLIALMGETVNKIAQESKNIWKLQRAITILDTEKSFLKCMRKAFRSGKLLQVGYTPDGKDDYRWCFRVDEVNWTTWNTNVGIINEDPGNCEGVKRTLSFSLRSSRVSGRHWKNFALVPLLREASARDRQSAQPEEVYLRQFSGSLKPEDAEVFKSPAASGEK
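TRPV1-expressing cells were cultured overnight at 35.5C and loaded with Fluo-8 calcium dye for 40 to 90 min at room temperature. After a 10 s baseline, compound was added and calcium influx was read kinetically for 3 min (ex 480/em 520 nm).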
gsp antagonist: gsp mutant antagonism. gsp-mutant cells, cAMP HTRF, 30 min; control for the full effect not named in the record. Potency, µM (titrated, usually from 76.9 µM), without a hit: at the highest dose activity change, negative = inhibition, most hits filed as inhibitors. hit rate 0.4% among 340,000. AID 624288; active = falling curve of any shape with a large fitted effect; inconclusive = falling curve, mostly with a smaller effect; inactive = flat or rising curve; cell line not stated here;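 also: intracellular cAMP measured with PDE inhibitor Ro 20-1724 present during compound exposure; potency is read from the fitted curve at half-maximal effect; % is scaled to controls: 0 for no effect and ±100 for the full control effect; nearly all actives have a fitted effect of over 65% in size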
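HTRF cAMP read-out (cAMP-d2 plus anti-cAMP antibody-K in lysis buffer, 30 min RT). Before lysis, cells are exposed to compounds with […] for 30 min at 37C in DPBS containing Ca/Mg, BSA and Tween 20.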
ClpP mod: qHTS Assay for Activators of ClpP. purified B. subtilis ClpP, FRET peptide cleavage, 20 min. hit rate 1.9% among 340,000. ATP-dependent Clp protease proteolytic subunit (Bacillus subtilis (strain 168)), P80244. Potency, µM (highest dose often 57.5 µM), for inactives: at the highest dose activity change, negative = active. AID 651965, 2013; active = well fitted falling curve with a large enough effect; inconclusive = small, poorly fitted or top-dose-only effect; inactive = no such curve, though single readings can be large or run the other way; also: potency is read from the fitted curve at half-maximal effect; the source files actives as falling curves though it sought activators and does not explain the sign; nearly all actives have a fitted effect of over 65% in size; many hits overshoot -100%
Target sequence (P80244 whole entry, looked up): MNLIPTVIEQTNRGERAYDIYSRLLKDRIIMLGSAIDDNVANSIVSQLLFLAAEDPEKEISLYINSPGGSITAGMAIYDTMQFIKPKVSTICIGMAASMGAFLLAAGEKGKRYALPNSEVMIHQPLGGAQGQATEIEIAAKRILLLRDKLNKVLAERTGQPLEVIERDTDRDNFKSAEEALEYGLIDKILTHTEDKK
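ClpP 10 microg/mL final, pH 8 Tris/KCl buffer with BSA, glycerol, Tween-20; compound pinned in; FRET-FV substrate; RT 20 min; Ex320/Em430; ΔFRET vs ADEP 5.8 microM, DMSO, no enzyme.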
D2 potentiator: human D2 receptor positive allosteric modulation; P14416; DiscoveRx D2 beta-arrestin cells, luminescence, 90 min; 100% = 57 uM dopamine signal; potentiation, % (concentration not given with the values); hit rate 0.23% among 360,000; active = potentiation of 50% or more; inconclusive = 30% to 50%; inactive = 30% or less;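 also: compound concentration not given in the record; tested on top of an EC20 dose of dopamine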
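D2 cells co-treated with compound plus 50 nM dopamine (EC20) for 90 min at 37 deg C to detect potentiation. Beta-arrestin recruitment was read as enzyme-fragment luminescence after 1 h at ambient temperature. Full response was set by 57 uM dopamine.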
Menin MLL FP FL: menin-MLL binding inhibition, fluorescein peptide | Fluorescence polarization, fluorescein-MLL peptide displacement from menin | FP activity change, % at 61.4 µM | 290,000 tested, under 10 active | AID 1766; inconclusive = falling polarisation curve, or a change in total fluorescence; inactive = total fluorescence flat and polarisation flat or rising; no compound was filed as active; the % refers to the polarisation; negative = inhibition;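 also: % of control where 0% means no effect; inhibitors lower the polarisation; unlabelled MLL peptide was the positive control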
gsp ag: agonists of gsp mutant (McCune-Albright syndrome) | AID 624287 | hit rate 0.13% among 340,000 | gsp mutant cells, cAMP HTRF, 30 min; control for the full effect not named in the record | Potency, µM (top dose mostly 76.9 µM), inactives show at the top dose activation (cAMP increase), most hits filed as activators; active = well fitted activation curve with a large enough effect; inconclusive = small, poorly fitted or top-dose-only effect, or another doubt; inactive = no such curve, though single readings can be large or run the other way; cell line not stated here;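 also: phosphodiesterase inhibitor Ro 20-1724 added with compounds to block cAMP breakdown; potency is read from the fitted curve at half-maximal effect; nearly all actives have a fitted effect of over 60% in size; about a fifth of the inactives were tested at one dose only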
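Cells in DMEM/10% FBS with G418 were pretreated with compounds in DMSO plus […] (300 uM stock) for 30 min at 37C. cAMP was measured by HTRF (cAMP-d2 plus anti-cAMP antibody-K) after 30 min at room temperature.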
Sfp PPTase inh: Sfp phosphopantetheinyl transferase inhibition | Q9F4F7 | Biochemical Sfp PPTase activity, qHTS | Potency, µM, without a hit: max response, negative = inhibition, most hits filed as inhibitors | hit rate 3.5% among 310,000; active = well fitted inhibition curve with a large enough effect; inconclusive = small, poorly fitted or top-dose-only effect, or another doubt; inactive = no such curve, though single readings can be large or run the other way;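 also: the enzyme is Sfp with the accession as filed and its product quenches rhodamine fluorescence; potency is read from the fitted curve at half-maximal effect; 0% = enzyme reaction without inhibitor and -100% = no enzyme wells; top concentration of the series not given in the record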
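Compounds were incubated with enzyme (final 15 nM) for 15 min at room temperature before substrate addition started the reaction. Fluorescence at 525 nm excitation, 598 nm emission was recorded immediately and after 30 minutes.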
Starred values were filed as active, the others as inactive; ? = inconclusive; . = not tested or not shown; [ ] = remark or other dose.

SMILES | TRPV1 potentiator | gsp antagonist | ClpP mod | D2 potentiator | Menin MLL FP FL | gsp ag | Sfp PPTase inh
O=C(CN(Cc1ccccc1Cl)C(=O)c1ccc(CN2CCOCC2)o1)NCc1ccccc1 | -10.8 | -7.4% | -1.0% | -16.5 | 0.3 | -11.2% | -0.8%
CCNC(=O)NC(=O)C(C)OC(=O)C1CCN(S(=O)(=O)c2ccccc2C(=O)OC)CC1 (stereo unspecified) | 9.7 | -1.4% | 0.4% | -8.3 | -1.5 | 1.3% | 10.0%
O=C(Nc1cc(Cl)cc(Cl)c1)c1cccc(OC(F)F)c1 | -7.1 | ? | -2.9% | -7.9 | 1.9 | -2.7% | -0.4%
O=C(Nc1cccc2c1N(C(=O)c1ccco1)CCC2)c1ccco1 | -6.3 | -1.6% | -7.9% | ? | 5.8 | 22.7% | 7.4%
CC(C)C(NC(=O)c1c(F)cccc1F)C(=O)OCN1C(=O)c2ccccc2C1=O (stereo unspecified) | -19.4 | -1.1% | 0.4% | 1.0 | . | -5.6% | .
CCc1ccccc1NC(=O)COc1ccc2c(=O)c(Oc3cc(C)ccc3C)coc2c1 | 8.0 | -16.5% | 2.6% | -13.0 | 9.9 | 16.9% | 44.7µM*
CCOc1ccccc1NC(=O)CCCNC(=O)c1ccc(Cl)cc1 | -30.5 | 13.1% | . | -14.7 | -2.4 | 0.9%[15.4 µM] | 5.9%
N#CC1=C(N)NC(SCC(=O)Nc2ccccc2)=C(C#N)C12CCCC2 | 1.0 | -4.4% | -4.0% | -7.0 | 1.9 | 9.8% | 3.8%
Cc1ccc2nc(NCc3ccccc3)[nH]c2c1 | -1.7 | 23.5% | 0.8% | -12.1 | -0.1 | -18.8% | 6.3%
O=C(COc1ccc2c(c1)oc(=O)c1ccccc12)NCC1CCC(C(=O)O)CC1 (stereo unspecified) | 10.5 | -8.5% | 4.5% | -22.8 | -1.1 | . | 21.2%
Cc1nc(CC(=O)c2ccc(O)cc2O)cs1 | 5.5 | 0.9% | -0.1% | -3.7 | 1.1 | -2.0% | 22.8%
COc1cc(/C=C(\C#N)c2nc3ccccc3[nH]2)cc(Br)c1OCc1ccc(F)cc1 | -5.3 | -4.4% | -12.2% | -14.4 | ? | 5.6% | -18.5%
CCc1[nH]nc(C(=O)N2CCCC(C(=O)c3cccc(C(F)(F)F)c3)C2)c1C (stereo unspecified) | 24.1 | -26.0% | 0.4% | -7.2 | . | ? | 14.4%
COc1ccc2c(C(=O)CN(C)C3CCCCC3)c[nH]c2c1 | 15.2 | 4.8% | -1.8% | -15.2 | 5.1 | -4.7% | 10.9%
C=CCN(c1ccccc1C(=O)NCC(=O)O)S(=O)(=O)c1ccccc1C | 0.0 | 14.4% | 1.2% | -8.5 | 3.2 | 0.5%[15.4 µM] | 26.9%
Cn1cc(S(=O)(=O)N2CCNCC2)cc1C(N)=O | . | 7.4% | -3.2% | -7.0 | . | ? | .
O=S(=O)(Nc1ccc(-c2nc3cccnc3s2)cc1)c1ccc(Cl)s1 | 22.3 | -15.3% | 4.4% | -4.7 | -1.5 | 17.7% | 11.9%
NC(=O)C1(N2CCCCC2)CCN(C(=O)CCCn2c(=O)[nH]c3ccsc3c2=O)CC1 | . | 1.4% | -0.8% | -2.3 | 5.1 | -28.7% | 7.1%
CC(=O)c1cccc(NC(=S)NC(=O)c2ccccc2C)c1 | 2.3 | 1.4% | 0.4% | -39.6 | ? | 4.7%[15.4 µM] | 10.5%
Cc1ccccc1CN1CCc2c(OCC(=O)N3CCCCC3)cccc2C1=O | -23.5 | -8.1% | -1.1% | -8.0 | 0.1 | 1.4%[15.4 µM] | 13.0%
COc1ccc(CC(=O)Nc2ccc(-c3noc(-c4cc(OC)c(OC)c(OC)c4)n3)cc2)cc1 | 8.0 | 12.0% | -15.2% | -15.8 | -0.3 | 8.0% | 5.1%
COc1ccc2cnn(CCOc3ccccc3)c(=O)c2c1OC | 18.4 | 6.8% | ? | -11.1 | 1.4 | -6.3% | 12.1%
COC(=O)C1C(=O)C(C(=O)c2ccccc2)C(=O)CC1(C)C (stereo unspecified) | -6.0 | -1.2% | 0.3% | -4.3 | -2.5 | -29.3% | 9.9%
COCCn1nnnc1C(C(C)C)N1CCN(C(=O)c2ccco2)CC1 (stereo unspecified) | 20.1 | 4.2% | -0.7% | 0.7 | 3.3 | -32.6%[inhibitor] | 22.6%
O=C(O)CC1=C(Nc2ccccc2)C(=O)N(c2ccccc2)C1c1ccc(Cl)cc1 (stereo unspecified) | -5.2 | -14.2% | -2.2% | -10.0 | 0.0 | 19.5% | 18.5%
Other results follow:
SMILES | TRPV1 potentiator | gsp antagonist | ClpP mod | D2 potentiator | Menin MLL FP FL | gsp ag | Sfp PPTase inh
CC(NC(=O)C[n+]1cccc(Br)c1)c1ccccc1 (stereo unspecified) | 7.8 | 9.9% | -0.1% | -7.3 | 2.7 | ? | 12.5%
CC1(C)CN(c2ccc(Br)cc2)C(=O)[C@H]1CC(=O)Nc1ccccc1 | . | . | -2.2% | 1.0 | . | -33.6%[inhibitor] | .
O=C(COC(=O)/C=C/c1cccc(Cl)c1)NCCC1=CCCCC1 | 0.7 | 8.5% | 0.4% | 1.6 | -0.8 | -7.6%[15.4 µM] | 0.6%
O=C1C(NS(=O)(=O)c2cccs2)=C(N2CCOCC2)C(=O)c2ccccc21 | 4.4 | -6.5% | . | -19.7 | 4.1 | 2.8%[15.4 µM] | 1.4%
Cc1onc(-c2ccccc2)c1C(=O)OCC(=O)Nc1ccc(Cl)cc1 | 16.9 | ? | -1.9% | 2.8 | . | 19.8% | .
Cc1ccnc2nc(C(=O)OCCOc3ccccc3)nn12 | -6.3 | 19.3% | 1.1% | -9.2 | -2.9 | ? | 22.7%
CCc1ccc(C2=NN(CCC(=O)NC(C)c3ccc4c(c3)OCCO4)C(=O)CC2)cc1 (stereo unspecified) | 26.6 | 0.1% | . | 0.7 | -0.8 | 6.4%[15.4 µM] | 14.0%
CCOc1ccc(NC(=O)CN(C)C(=O)c2ccccc2CCc2ccccc2)cc1OCC | -16.5 | ? | . | 4.0 | . | -6.1%[15.4 µM] | .
O=C(NNC(=O)C1CC1)c1ccc(-c2ccccc2)cc1 | 7.1 | 13.4% | -2.3% | -8.6 | -1.2 | -9.2% | 11.7%
Cc1ccc(NC(=O)/C=C/c2ccc(Cl)cc2)nc1 | 4.1 | 5.1% | . | 2.6 | 0.0 | 1.0%[15.4 µM] | 20.8%
O=C(CNC(=O)N1CC(=O)Nc2ccccc21)NCc1ccc(F)cc1 | . | . | -0.1% | -9.9 | . | -21.9% | .
CCN(CC)S(=O)(=O)c1cc(NC(=O)CO/N=C(\N)c2ccccc2Cl)ccc1C | -11.2 | -15.6% | -1.5% | -1.9 | . | -0.2% | .
O=Cc1ccc(-n2nncc2-c2ccc([N+](=O)[O-])cc2)cc1 | 1.8 | -15.6% | . | 5.6 | -1.6 | 13.4%[15.4 µM] | -16.8%
Cc1cc(C(=O)N2CCCC(N3CCN(c4cccc(Cl)c4)CC3)C2)nn1C (stereo unspecified) | 0.9 | -10.2% | 0.5% | -29.8 | . | -48.6%[inhibitor] | 14.3%
Cn1c(=O)n(CCC(=O)O)c2ccccc21 | -5.2 | 2.2% | -5.2% | 7.4 | -0.5 | -0.2% | -5.7%
O=C(COC(=O)c1nc(Cl)ccc1Cl)NCc1ccc(Cl)cc1Cl | 4.3 | -0.3% | 0.3% | -5.0 | . | 11.8%[15.4 µM] | .
CCOC(=O)[C@H]1[C@H]2COc3ccccc3[C@@H]2N2C(=O)c3cc(C)ccc3NC(=O)[C@@]12C | -0.8 | -0.2% | -2.0% | -11.6 | . | 1.7% | .
COc1ccc(C(=O)CC(=O)c2ccc(C)cc2)c(O)c1 | -2.2 | -11.1% | . | -5.4 | -2.2 | -14.7% | 0.4%
O=C1NC(=O)C(CC(=O)N(Cc2ccco2)C2(C(=O)NC3CCCCC3)CCCCC2)N1 (stereo unspecified) | -11.9 | 9.8% | -1.2% | 5.6 | -0.2 | -11.8% | 10.6%
NC(=O)CC(NC(=O)c1ccc(Br)cc1)c1ccc(NCCc2ccc(F)cc2)c([N+](=O)[O-])c1 (stereo unspecified) | -10.5 | 8.1% | 0.4% | -9.5 | -0.2 | -9.8% | -11.5%
Cc1nc(NC(=O)CN2CC(C)OC(C)C2)sc1C(=O)N(C)C (stereo unspecified) | 7.6 | 8.6% | . | -2.4 | 2.0 | -3.8% | 6.7%
O=C(CN(c1cccc(C(F)(F)F)c1)S(=O)(=O)c1ccc(Cl)c([N+](=O)[O-])c1)NCc1ccc(F)cc1 | 24.3 | ? | -2.2% | -6.8 | 2.3 | -9.3% | -20.0%
CN(C)C(=O)c1ccc2c(c1)C1C3CCC(C3)C1C(c1ccccc1)N2 (stereo unspecified) | -3.4 | -24.3% | -0.1% | -18.6 | 0.2 | 1.5% | -9.8%
C[C@@]12C(=O)Nc3ccccc3C(=O)N1[C@H]1c3cc(Cl)ccc3OC[C@@H]1[C@@H]2c1ccccc1 | . | -6.9% | -6.2% | -21.1 | . | . | .

Compound profiles, as listed above. Order of values: TRPV1 potentiator, gsp antagonist, ClpP mod, D2 potentiator, Menin MLL FP FL, gsp ag, Sfp PPTase inh
Cn1c(=O)n(CCC(=O)O)c2ccccc21 is listed with -5.2, 2.2%, -5.2%, 7.4, -0.5, -0.2%, -5.7%
O=Cc1ccc(-n2nncc2-c2ccc([N+](=O)[O-])cc2)cc1 is listed with 1.8, -15.6%, ., 5.6, -1.6, 13.4%[15.4 µM], -16.8%
CN(C)C(=O)c1ccc2c(c1)C1C3CCC(C3)C1C(c1ccccc1)N2 (stereo unspecified) is listed with -3.4, -24.3%, -0.1%, -18.6, 0.2, 1.5%, -9.8%
CCN(CC)S(=O)(=O)c1cc(NC(=O)CO/N=C(\N)c2ccccc2Cl)ccc1C is listed with -11.2, -15.6%, -1.5%, -1.9, ., -0.2%, .
O=C(COC(=O)/C=C/c1cccc(Cl)c1)NCCC1=CCCCC1 is listed with 0.7, 8.5%, 0.4%, 1.6, -0.8, -7.6%[15.4 µM], 0.6%
